High-throughput results deposited in PubChem by National Center for Advancing Translational Sciences (NCATS).
TRPML1 ag = agonists of human TRPML1 channel | activation, % (no concentration beside the values) | TRPML1-expressing cells, Ca2+ dye fluorescence, FDSS; host cell line not named in the record; reference of the full effect not given here | 0.12% of 410,000 active | AID 624414 | Q9GZU1; in the data active = activation above about 50%; inconclusive = about 30% to 50%; inactive = below about 30%; also: 0% is about no effect; the text of the record puts the active cut at 80%
Target sequence (Q9GZU1 whole entry, looked up): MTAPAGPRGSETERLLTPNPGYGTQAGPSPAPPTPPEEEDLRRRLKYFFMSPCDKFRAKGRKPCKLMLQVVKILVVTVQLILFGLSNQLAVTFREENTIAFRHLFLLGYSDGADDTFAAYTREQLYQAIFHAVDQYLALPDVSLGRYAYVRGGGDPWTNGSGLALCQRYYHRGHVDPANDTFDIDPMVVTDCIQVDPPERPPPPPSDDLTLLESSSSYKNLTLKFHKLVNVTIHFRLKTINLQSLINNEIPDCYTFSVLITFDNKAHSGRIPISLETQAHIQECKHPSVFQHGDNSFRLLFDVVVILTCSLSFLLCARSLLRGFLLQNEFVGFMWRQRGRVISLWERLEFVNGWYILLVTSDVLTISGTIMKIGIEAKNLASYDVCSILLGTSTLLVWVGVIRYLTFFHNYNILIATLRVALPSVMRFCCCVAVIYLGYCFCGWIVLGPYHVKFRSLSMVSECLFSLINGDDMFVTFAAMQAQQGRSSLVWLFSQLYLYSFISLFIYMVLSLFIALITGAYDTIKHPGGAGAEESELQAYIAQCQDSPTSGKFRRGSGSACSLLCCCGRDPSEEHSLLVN
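Agonist activity was taken from a 110 s kinetic Ca2+ dye read on the FDSS after pinning compounds onto TRPML1-DL cells. The cells were seeded at 1,500/well with Tet inducer, incubated about 16 h, then dye-loaded at room temperature.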
CtBP-E1A blk = inhibitors of CtBP/E1A interaction; AlphaScreen GST-E1A/His-CtBP binding, 1536-well; hits give low values; control for the full effect not named in the record; activity change, % (test concentration not listed); 0.49% of 340,000 active; AID 651724; in the data active means activity change below about -65%; inconclusive means about -30% to -65%; inactive means above about -30%; also: % is scaled to controls: 0 for no effect and ±100 for the full control effect; compound concentration not given in the record
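Protein mix (5X: 125 nM each GST-E1A, His-CtBP) was incubated with pinned compound 2 h at 37 deg C in dark, in 50 mM Tris pH 8.0 buffer with 300 mM NaCl. Glutathione donor and nickel acceptor beads followed; AlphaScreen signal read after 1 h.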
D2 ag = agonists of human D2 dopamine receptor (beta-arrestin); P14416; DiscoveRx PathHunter D2 beta-arrestin, luminescence, 90 min; 100% = 57 uM dopamine signal; activation, % (test concentration not listed); 0.084% of 360,000 active; AID 624465; in the data active = activation above about 40%; inconclusive = about 15% to 40%; inactive = below about 15%; also: compound concentration not given in the record; the text of the record calls up to 30% inactive
Target sequence (P14416 whole entry, looked up): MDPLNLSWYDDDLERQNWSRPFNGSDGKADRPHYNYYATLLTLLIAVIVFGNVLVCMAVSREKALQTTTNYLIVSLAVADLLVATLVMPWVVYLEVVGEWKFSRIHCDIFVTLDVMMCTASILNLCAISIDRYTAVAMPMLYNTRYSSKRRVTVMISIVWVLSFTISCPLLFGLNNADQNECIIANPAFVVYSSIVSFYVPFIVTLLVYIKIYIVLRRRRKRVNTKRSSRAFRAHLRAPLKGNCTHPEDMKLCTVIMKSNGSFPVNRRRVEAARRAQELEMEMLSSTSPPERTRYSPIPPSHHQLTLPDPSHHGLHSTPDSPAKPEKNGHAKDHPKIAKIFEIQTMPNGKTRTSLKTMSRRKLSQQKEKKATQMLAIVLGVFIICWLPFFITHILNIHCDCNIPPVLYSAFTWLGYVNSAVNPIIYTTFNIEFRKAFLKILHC
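Agonist mode: compounds alone added to overnight-plated D2 PathHunter cells for 90 min at 37 C, with 57 uM final dopamine (EC100) defining full response. Beta-arrestin recruitment detected by chemiluminescent reagent, read after 1 h at ambient temperature.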
PINK1 expr mod = PINK1 expression modulation. PINK1 immunofluorescence, high-content cytometry, 24 h. Potency, µM (doses to about 76.6 µM), for inactives: top-dose activation (PINK1 increase), actives largely listed as activators. 0.2% of 410,000 active. AID 624263; active = well fitted activation curve with a large enough effect; inconclusive = small, poorly fitted or top-dose-only effect; inactive = flat fitted curve, though single readings scatter; cell line not stated here;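 also: potency is read from the fitted curve at half-maximal effect; % of control where 0% means no effect; nearly all actives have a fitted effect of over 65% in size; a mitochondrial uncoupler was the plate control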
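Stable cell line treated 24 h with compounds at 5 concentrations (CCCP controls), then fixed and immunostained for PINK1 plus nuclear and cell stains; PINK1 immunofluorescence quantified by laser-scanning microplate cytometry.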
Six1-Eya2 blk = blocks human Six1 binding to Eya2 | Q15475+O00167 | AlphaScreen GST-Six1/His-Eya2 binding, biochemical; hits give low values; control for the full effect not named in the record | activity change, % (concentration not given with the values) | 0.56% of 360,000 active | AID 651725; in the data active = activity change below about -65%; inconclusive = about -30% to -65%; inactive = above about -30%; also: % is scaled to controls: 0 for no effect and ±100 for the full control effect
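Compounds are tested against tagged Six1 and Eya2 proteins bridged by glutathione donor and nickel acceptor beads; after a one-hour incubation at 37 °C without light, AlphaScreen emission is recorded.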
TRPML1 inh = blocks the human TRPML1 channel; Q9GZU1; 0.02% of 390,000 active; activity change, negative = inhibition, % (no concentration beside the values); TRPML1-inducible cells, Ca2+ dye fluorescence, FDSS; hits give low values; inhibition of EC80 agonist-evoked calcium signal; in the data active means activity change below about -50%; inconclusive means about -30% to -50%; inactive means above about -30%;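 also: stimulus is agonist 54-4 at its EC80 concentration; % is scaled to controls: 0 for no effect and ±100 for the full control effect; compound concentration not given in the record; the text of the record puts the active cut at -80%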
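TRPML1-DL cells, Tet-induced overnight (~16 h, 37 °C) at 1,500 cells/well, were loaded with Ca8 no-wash dye plus quencher for 45-90 min at room temperature. Compounds were pinned during FDSS kinetic reading; agonist 54-4 at EC80 (4 uM final) then added.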
An asterisk follows results filed as active; ? = inconclusive; . = not tested or not shown; & = joins results of further samples; [ ] = another dose, or the depositor's remark. Rows are unselected; any-hit rate near 1%.

The first 5 records (preview)
SMILES	TRPML1 ag	CtBP-E1A blk	D2 ag	PINK1 expr mod	Six1-Eya2 blk	TRPML1 inh
COc1ccccc1/C=C1\SC(=S)N(CCC(=O)NCCCn2ccnc2)C1=O	0.1	.	-1.3	0.3%	15	-1
COc1ccc(NC2CC(=O)N(CCc3ccccc3)C2=O)cc1 (stereo not given)	0.7	-10	-1.7	1.7%	-19	12
c1ccc(OCCNc2ccn3nc(-c4ccc(OCCN5CCOCC5)cc4)cc3n2)cc1	-0.3	-19	?	7.7%	-26	.
CC(C)C[C@H](NC(=O)OCC1c2ccccc2-c2ccccc21)C(=O)O	1.5	-5	-1.7	0.2%	5	-2
Cc1ccc(CSc2nc3nc(C)cc(C)c3c(=O)[nH]2)cc1	1.2	-13	5.7	-1.1%	-9	6

Main list, repeating the preview:
SMILES	TRPML1 ag	CtBP-E1A blk	D2 ag	PINK1 expr mod	Six1-Eya2 blk	TRPML1 inh
COc1ccccc1/C=C1\SC(=S)N(CCC(=O)NCCCn2ccnc2)C1=O	0.1	.	-1.3	0.3%	15	-1
COc1ccc(NC2CC(=O)N(CCc3ccccc3)C2=O)cc1 (stereo not given)	0.7	-10	-1.7	1.7%	-19	12
c1ccc(OCCNc2ccn3nc(-c4ccc(OCCN5CCOCC5)cc4)cc3n2)cc1	-0.3	-19	?	7.7%	-26	.
CC(C)C[C@H](NC(=O)OCC1c2ccccc2-c2ccccc21)C(=O)O	1.5	-5	-1.7	0.2%	5	-2
Cc1ccc(CSc2nc3nc(C)cc(C)c3c(=O)[nH]2)cc1	1.2	-13	5.7	-1.1%	-9	6
CCc1ccc(NC2=CC(=O)CC(C)(C)C2)cc1	-0.9	-7	-2.1	3.3%	-18	19
Cc1ccccc1OCC(O)Cn1c(N2CCCCC2)nc2c1c(=O)[nH]c(=O)n2C (stereo not given)	-0.6	-5	0.2	-1.6%	-3	29
Cc1ccc(S(=O)(=O)NCC(=O)OCc2csc(CC(=O)Nc3ccccc3C)n2)cc1C	0.4	.	-1.6	0.8%	-3	-2
CCC1CCc2c(sc(NC(C)=O)c2C#N)C1 (stereo not given)	2.8	-2	-0.6	2.0%	11	15
S=C(NCCc1ccccn1)Nc1ccc(Cl)cc1	1.2	-4	0.1	0.5%	-3	10
CC(=O)N1N=C(c2ccc(C)o2)CC1c1cccc(F)c1 (stereo not given)	0.6	-3	-0.3	-2.4%	-3	?
COc1ccccc1CNC(=O)C1CCCN(S(=O)(=O)c2cccs2)C1 (stereo not given)	0.8	-4	6.4	-2.1%	1	-3
Cc1c(C(=O)N2CCOCC2)sc(NC(=O)CCl)c1C#N	2.9	6	-1.4	1.9%	0	-19
CCOC(=O)c1c(C)n(OCc2ccccc2)c2ccc3nonc3c12	2.8	3	0.3	.	19	46
CSc1nc(C(=O)N2CCCC(N3CCN(c4ccccc4C)CC3)C2)cs1 (stereo not given)	3.0	-3	-0.8	1.1%	-2	21
COc1ccccc1CN(CC(=O)NCc1ccco1)C(=O)CNS(=O)(=O)c1ccc(C)cc1	-0.2	-3	-2.6	-1.3%	11	2
COc1cccc([C@@H]2CC=C(C(=O)O)[C@H](c3ccc(Cl)cc3)N2S(=O)(=O)c2ccc(C)cc2)c1	-0.5	2	2.6	-1.3%	3	-2
COc1ccc(NC(=O)c2c[nH]c(=O)n(-c3ccc(C)c(C)c3)c2=O)c(OC)c1	-0.7	0	-5.4	8.5%	-2	-3
CC1CCN(CCCNC(=O)c2cc(Sc3ccc(F)cc3)nc3ccccc23)CC1	4.7	.	.	9.2%	.	15
O=C(Nc1ccccc1N1CCN(c2ccccc2)CC1)C1CCCCC1	-0.1	16	-1.3	-1.6%[38.3 µM]	-1	2
O=C(NC(=S)Nc1ccccc1Cl)C1CC1	0.3	-5	-4.5	1.1%	-4	-8
O=C1CCc2ccccc2N1Cc1ccccc1	-1.7	10	-0.7	4.1%	8	12
COc1ccc(NC(=O)C2CC(c3c(F)cccc3Cl)=NO2)cc1OC (stereo not given)	0.1	-1	-0.3	1.6%	0	-12
CC(C)(CO)NC(=O)CC1C(=O)NCCN1Cc1ccc(-c2ccccc2)cc1 (stereo not given)	-0.1	?	-1.5	1.9%	-2	-15
OCc1ccccc1-c1cnc2sc(NCc3ccc(F)cc3)nn12	-0.6	-3	6.5	1.0%	-10	.
(continued)
SMILES	TRPML1 ag	CtBP-E1A blk	D2 ag	PINK1 expr mod	Six1-Eya2 blk	TRPML1 inh
Cc1ccc(-c2nc3ccc(Cl)cn3c2CC2CCCCC2)cc1	-0.4	4	-2.4	-0.3%	-2	-9
O=C(N/N=C/c1ccc([N+](=O)[O-])o1)c1ccncc1	0.2	-27	9.5	2.4%	-21	26
CC(OC(=O)CN1C(=O)c2ccccc2C1=O)C(=O)N(C)c1ccccc1 (stereo not given)	0.0	11	-3.0	-3.0%	-1	-13
CCN(CC)CCCN(C(=O)c1cccs1)c1nc(-c2ccc(OC)cc2)cs1	-0.8	-17	-4.7	-0.3%[38.3 µM]	-18	-11
O=C(COc1nncc2ccccc12)Nc1ccc(F)c(F)c1	-1.0	-21	6.5	1.8%	0	1
Cc1ccc(NC(=O)CCS(=O)(=O)c2cccc3nonc23)cc1	0.4	6	2.7	1.6%	11	12
O=C(Nc1ccccn1)c1ccc([N+](=O)[O-])cc1Cl	1.0	-5	9.2	2.6%	-5	-16
CCCS(=O)(=O)NC(=O)C1(C)CCN(C(=O)c2cccc(C(F)(F)F)c2)C1 (stereo not given)	-0.4	-16	-4.2	1.1%	6	.
COc1ccccc1CNC(=O)CN(c1ccc(C)cc1)S(=O)(=O)c1c(C)noc1C	0.4&0.0	.	-0.7	4.3%&0.3%	-1	13&49
CC(C)c1ccc(/C=C/C(=O)O)cc1	0.4	2	-1.4	0.9%	0	4
CCn1c(SCC(=O)Nc2nc3ccc(C)cc3s2)nc2c(c1=O)SC(C)C2 (stereo not given)	1.8	-7	3.2	-0.4%	-26	11
CCC(CC)C(=O)N(c1ccc(F)cc1)C1C=CS(=O)(=O)C1 (stereo not given)	0.7	-4	1.7	-2.4%[38.3 µM]	0	-9
CC1(C)CC(=O)C(Br)=C(O)C1	0.4	0	-2.5	1.1%	12	-7
O=c1cc(O)nc[nH]1	.	0	-6.3	-0.7%	-9	.
CSc1ccc(Cl)c(C(=O)NCCOc2cc(C)ccc2C(C)C)c1	4.9	18	-1.0	3.8%[38.3 µM]	14	20
CCn1cc(C(=O)N2CCN(c3ccc(C)cc3)C(C)C2)c(=O)c2cc(S(=O)(=O)N3CCCC3)ccc21 (stereo not given)	-0.5	.	.	6.5%	.	13
CCCc1ccc(-c2cc(C(=O)N3CCN(c4ccccn4)CC3)c3ccccc3n2)cc1	1.1	-7	0.2	3.6%	-10	1
Cc1ccccc1-c1nc(CN2CCCC(C(=O)NCCCN3CCOCC3)C2)c(C)o1 (stereo not given)	0.0	1	-1.5	0.3%	5	9
CCn1c(CNc2ccc(C)cc2)nnc1SCC(N)=O	-0.1	7	-2.4	-1.0%	7	18
COc1cc(/C=N/NC(=O)C(C)n2nnc3ccccc32)ccc1O (stereo not given)	1.6	-16	0.3	-3.1%	-24	-6
Cn1c(SCC(N)=O)nnc1C1CCN(S(=O)(=O)c2ccccc2C(F)(F)F)CC1	0.1	1	-5.3	-0.1%	-2	15
CCc1ccc(NC(=O)CSc2ccccn2)cc1	2.1	-1	-0.4	-0.4%	8	18
Cn1c(=O)c2c(nc(CN3CCN(C(=O)c4ccco4)CC3)n2CCCc2ccccc2)n(C)c1=O	0.2	3	-0.2	0.2%	-11	1
CCCCNS(=O)(=O)c1ccc(S(=O)(=O)NCc2ccncc2)cc1	0.4	10	4.4	2.0%[38.3 µM]	4	1
COc1cccc(NC(=O)c2ccc(NC(=O)C3CC(=O)OC34CCCCC4)cc2)c1 (stereo not given)	0.9	-80*	1.0	5.2%	?	-11
The listing continues.
SMILES	TRPML1 ag	CtBP-E1A blk	D2 ag	PINK1 expr mod	Six1-Eya2 blk	TRPML1 inh
O=C(C(=O)N1CCc2ccccc2C1)c1cn(CC(=O)N2CCCCC2)c2ccccc12	0.0	-11	-8.1	-1.2%	-4	-9
COc1ccc(CN2CC(=O)N(c3cc(Cl)ccc3C)C2=S)cc1OC	0.5	-8	5.4	4.8%	-2	2
Cn1c(N)c(C(=O)COC(=O)c2ccc([N+](=O)[O-])o2)c(=O)n(C)c1=O	0.0	-22	?	-0.8%	-9	-5
CN1C(=O)C2CN(CCc3ccccc3)CNC2N(C)C1=O (stereo not given)	-0.3	1	-2.4	-0.2%	-2	-7
Cc1cc([N+](=O)[O-])nn1CC(=O)NNC(=S)Nc1ccc([N+](=O)[O-])cc1	-0.3	-9	-8.5	5.0%[38.3 µM]	-5	12
CCC12CN3CC(CC)(CN(C1)C3c1ccccc1Cl)C2O (stereo not given)	0.2	0	-1.1	-0.4%	2	29
CC(OC(=O)c1cccc(S(=O)(=O)N2CCOCC2)c1)C(=O)NC1CCCCC1C (stereo not given)	-0.4	7	-0.6	1.6%	0	3
Cn1c(=O)c2c(nc(NC3CCCCC3)n2CC(=O)C23CC4CC(CC(C4)C2)C3)n(C)c1=O	-0.3	-1	-0.5	3.3%	-11	0
CCOc1cc(/C=N/Nc2ncc(C)c(=O)[nH]2)ccc1O	-1.0	-81*	2.9	2.0%	?	-12
O=C(Cc1ccccc1F)N1CCN(S(=O)(=O)c2ccc(Cl)cc2)CC1	-0.2	1	4.5	-0.6%	20	-9
COc1ccccc1CNc1nc(NCc2ccc3occc3c2)c2sccc2n1	-0.5	-5	6.2	?	-10	.
Cc1cccc(OCCC(=O)NCC(=O)Nc2cccc(C)c2C)c1	-0.8	-8	-3.6	1.0%	2	-12
COc1cc2c3nnc(-c4ccc(F)cc4)c-3cn(Cc3ccc(C)cc3)c2cc1OC	-0.8	1	-2.8	?	-3	-14
CCC(C)(C)NC(=O)C(c1ccccc1)N(Cc1cccnc1)C(=O)c1csnn1 (stereo not given)	-0.9	2	-1.4	-1.5%	0	-14
COc1cc2c(cc1OC)C(C)N(C(=O)c1cccc([N+](=O)[O-])c1)CC2 (stereo not given)	1.9	.	5.9	-1.5%	-11	-9
Cc1cccc(OCc2ccc(-c3nc(C#N)c(N4CCC(C(N)=O)CC4)o3)o2)c1	0.2	.	.	2.7%	.	-8
Cc1ccc(NC(=O)CN(C)C(=O)c2ccc(Cl)nc2)cc1	-0.4	12	-1.5	2.6%	0	34
O=C(NC(=S)NC(CO)Cc1ccccc1)c1ccc(F)cc1 (stereo not given)	-0.5	-3	-6.1	-0.8%	-2	-9
CC(C)C(NS(=O)(=O)c1ccccc1F)C(=O)N1CCc2ccccc2C1 (stereo not given)	-0.4	9	3.2	-0.5%	-4	4
Cc1cc(C)c2c3c(c(-c4ccccc4)n2n1)c(=O)n(C)c(=O)n3C	-0.1	14	-2.9	1.6%	15	-3
Cc1c(C)c2ccc(OCC(=O)N3CCC(C(=O)O)CC3)c(C)c2oc1=O	.	-3	-5.9	0.6%	-6	.
Cc1ccc2c(c1)NCC(C(=O)NC1CCC(C)CC1)O2 (stereo not given)	-0.5	2	-30	1.6%	2	-14
O=C(O)CCC(NC(=S)Nc1ccccc1)C(=O)O (stereo not given)	-0.4	4	-2.8	1.7%	9	-6
